MARV entry inh = qHTS for inhibitors of binding or entry into cells for Marburg Virus. Marburg virus pseudotyped entry inhibition, cell reporter; control for the full effect not named in the record; about a third of the inactives were read at about 46 µM. Potency, µM (top dose mostly 37.8 µM), for inactives: top-dose activity change, negative = inhibition, actives largely listed as inhibitors. 1.8% of 300,000 active; active = well fitted inhibition curve with a large enough effect; inconclusive = small, poorly fitted or top-dose-only effect, or effect the other way; inactive = flat fitted curve, though single readings scatter; tested in HEK293 cells; about a fifth of its hits are not listed in these tables; further: on the % scale 0 is the no-effect control and ±100 the full control effect; luciferase read-out
Cruzain inh noDet = qHTS Assay for Promiscuous and Specific Inhibitors of Cruzain (without detergent). Cruzipain (Trypanosoma cruzi), P25779. purified cruzain, Z-FR-AMC fluorescence, no detergent. Potency, µM, inactives show max response, negative = inhibition, actives largely listed as inhibitors. 2.3% of 200,000 active. AID 1476, 2009;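 further: plate controls were enzyme without inhibitor for no effect and buffer without enzyme for full effect; nearly all actives have a fitted effect of over 40% in size; top concentration of the series not given in the record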
Target sequence (P25779 123-467 limits assumed): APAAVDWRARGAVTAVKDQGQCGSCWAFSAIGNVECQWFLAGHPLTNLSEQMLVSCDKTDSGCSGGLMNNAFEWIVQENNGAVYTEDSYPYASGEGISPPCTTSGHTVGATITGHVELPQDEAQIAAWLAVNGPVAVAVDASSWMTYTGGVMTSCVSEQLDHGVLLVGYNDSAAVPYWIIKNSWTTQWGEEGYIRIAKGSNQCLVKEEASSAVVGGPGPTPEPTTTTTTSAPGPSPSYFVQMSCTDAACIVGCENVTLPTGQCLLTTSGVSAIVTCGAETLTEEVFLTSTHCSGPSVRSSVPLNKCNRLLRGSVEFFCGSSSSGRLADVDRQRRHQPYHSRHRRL
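Purified cruzain at 1.5 nM, pre-incubated 15 min with compound at room temperature in 100 mM sodium acetate pH 5.5, 5 mM DTT, 0.00005% Triton X-100. Reaction started with 2 uM Z-FR-AMC; AMC fluorescence increase over 60 s gives rate.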
Cruzain Triton = qHTS Assay for Promiscuous and Specific Inhibitors of Cruzain (with detergent) | 0.43% of 200,000 active | purified cruzain, Z-FR-AMC fluorescence, 0.01% Triton | Cruzipain (Trypanosoma cruzi), P25779 | Potency, µM, for inactives: max response, negative = inhibition, actives largely listed as inhibitors;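 further: plate controls were neutral wells for no effect and buffer without enzyme for full effect; nearly all actives have a fitted effect of over 40% in size; top concentration of the series not given in the record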
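Cysteine protease activity tested under reducing, mildly acidic conditions (100 mM sodium acetate pH 5.5, 5 mM DTT) plus 0.01% Triton X-100. Cruzain 1.5 nM; substrate Z-FR-AMC 2 uM; 15 min compound preincubation at room temperature.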
NS1 inh = qHTS Assay for Inhibitors of Influenza NS1 Protein Function; S. cerevisiae slowed by influenza A NS1, growth recovery by OD600; Potency, µM (titrated, usually from 46.1 µM), without a hit: at the top dose activity, positive = more growth; 0.4% of 270,000 active; active means well fitted rising curve with a large enough effect; inconclusive means small, poorly fitted or top-dose-only effect; inactive means no such curve, though single readings can be large or run the other way; further: nearly all actives have a fitted effect of over 50% in size
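OD600 was taken as the measure of yeast growth restored by compound in an NS1-expressing S. cerevisiae strain. Cells had been washed out of glucose medium and diluted 1:100 into galactose -URA medium, pH 6.0.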
SARS PLP yeast = qHTS of Yeast-based Assay for SARS-CoV PLP. S. cerevisiae expressing SARS-CoV PLpro, growth rescue; control for the full effect not named in the record. Potency, µM (series often up to 32.9 µM), for the others: top-dose activity, positive = growth rescue. 0.19% of 330,000 active. AID 485353, 2010; active means well fitted rising curve with a large enough effect; inconclusive means small, poorly fitted or top-dose-only effect; inactive means no such curve, though single readings can be large or run the other way; further: 0% is about no effect; nearly all actives have a fitted effect of over 55% in size; growth read by luminescence after 48 h
Lassa entry inh = qHTS for Inhibitors of binding or entry into cells for Lassa Virus. 1.2% of 300,000 active. Lassa virus pseudotype entry inhibition, cell reporter; control for the full effect not named in the record. Potency, µM (top dose mostly 37.9 µM), without a hit: at the top dose activity change, negative = inhibition, most hits filed as inhibitors; active means well fitted inhibition curve with a large enough effect; inconclusive means small, poorly fitted or top-dose-only effect, or effect the other way; inactive means flat fitted curve, though single readings scatter; tested in HEK293 cells; further: on the % scale 0 is the no-effect control and ±100 the full control effect; nearly all actives have a fitted effect of over 50% in size; luciferase read-out
StopGo reporter = High Throughput Screening for Foot and Mouth Disease Virus Antivirals; Potency, µM (top dose mostly 57.9 µM), inactives show at the top dose signal change, negative = less light; human cells with a luciferase reporter of 2A StopGo recoding; control for the full effect not named in the record; 1.2% of 410,000 active; active = well fitted falling curve with a large enough effect; inconclusive = small, poorly fitted or top-dose-only effect; inactive = no such curve, though single readings can be large or run the other way; tested in HEK293T cells; further: on the % scale 0 is the no-effect control and ±100 the full control effect; nearly all actives have a fitted effect of over 45% in size; luciferase light after 4 h
RE007 growth inh = qHTS Assay for Inhibitors of the HIV-1 protein Vpr. S. pombe RE007 Vpr strain, BacTiter-Glo ATP luminescence, 24 h; control for the full effect not named in the record. Potency, µM (highest dose often 92.2 µM), for the others: at the highest dose activity change, negative = less growth. 0.21% of 360,000 active; active = well fitted falling curve with a large enough effect; inconclusive = small, poorly fitted or top-dose-only effect; inactive = no such curve, though single readings can be large or run the other way;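 further: on the % scale 0 is the no-effect control and ±100 the full control effect; nearly all actives have a fitted effect of over 50% in size; the assay follows cell death caused by Vpr and the record does not say whether a fall means rescue or toxicity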
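Fission yeast RE007 carrying one integrated HIV-1 vpr copy, seeded at OD 0.01 in PMG+AL medium with 23 nL pinned compound. Grown 24 h at 30 degrees; viability read by BacTiter-Glo luminescence after 5 min.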
Numbers without * were called inactive; ? = inconclusive; / = no result given; [ ] = remark or other dose. Unless noted, the call rests on the fitted dose curve; in most records, active means well fitted curve in the direction sought with a large enough effect; inconclusive means small, poorly fitted or top-dose-only effect, or another doubt; inactive means no such curve, though single readings can be large; an effect the other way counts as inactive or inconclusive. Potency means the concentration at half of the fitted maximal effect.

no.	mol	Cruzain Triton	Lassa entry inh	MARV entry inh	SARS PLP yeast	Cruzain inh noDet	NS1 inh	RE007 growth inh	StopGo reporter
1	CCOC(=O)CSc1nnc(-c2nnc(SCC(=O)OCC)n2CC)n1CC	5.6%	13%	6%	0%	-8%	-56%	5%[3.69 µM]	-2%
2	O=C(NCCS(=O)(=O)N1CCN(c2ccccc2F)CC1)c1ccc(Br)o1	/	/	/	17%	/	-5%	0%	-13%
3	O=C(NCCN1CCN(c2ccccc2)CC1)C1CCN(S(=O)(=O)c2cccs2)CC1	5.0%	-20%	?	-2%	1%	-5%	-3%	?
4	CCOC(=O)c1c(C)[nH]c(C(=O)COC(=O)C2CC2C)c1C (stereo not given)	2.3%	?	?	-1%	2%	4%	-6%	-17%
5	CN(C)CC1CCCCC1OC(=O)/C=C/c1ccc(Cl)cc1Cl (stereo not given)	/	?	?	-1%	/	/	5%	0%
6	CCCS(=O)(=O)N1CCC(C(=O)NCCc2ccccc2)CC1	9.9%	17%	11%	-5%	6%	-3%	31%	-1%
7	Oc1ccccc1C1OCC2(CO1)COC(c1ccccc1O)OC2 (stereo not given)	-1.9%	1%	12%	4%	-8%	-1%	-7%	-22%
8	Cc1cc(C)n(-c2ccc(C(=O)O)cc2[N+](=O)[O-])n1	/	0%[46.1 µM]	12%[46.1 µM]	-3%	/	/	-3%	-7%
9	Cc1ccnc(SCCn2c(N3CCOCC3)nc3c2c(=O)[nH]c(=O)n3C)n1	/	19%	?	/	/	26%	11%	-7%
10	COc1ccc(-c2cnnc(N/N=C/c3ccc(OC)c(OC)c3)n2)cc1	-8.9%	?	5%	12%	5%	?	-1%	-7%
11	CN(C)C(Cc1ccccc1)C(=O)c1ccc(-c2ccccc2)cc1 (stereo not given)	-4.1%	-10%	?	3.2µM*	-12%	-80%	-23%	14%
12	COc1cccc(-c2cc(C(F)(F)F)nc(NCCc3ccccc3)n2)c1	-10%	10%[46.1 µM]	?	/	-14%	/	/	16%
13	CCN1C(=O)S/C(=C/c2cn(C)c3ccccc23)C1=O	-6.7%	?	-3%	25%	?	8%	-3%	15%
14	CN(C(=O)c1cccc(NC(=O)c2ccccc2)c1)C1CCCCC1	/	/	/	0%	/	-13%	7%	-27%
15	COC(=O)c1ccc(Nc2nnc(-c3ccc(C)c(S(=O)(=O)N4CCN(C)CC4)c3)c3ccccc23)cc1	-18%	?	?	/	15%	/	/	12%
16	O=C(NCc1ccccc1)c1ccc(S(=O)(=O)Nc2cccc(C(F)(F)F)c2)cc1	/	/	/	-2%	/	-2%	7%	-19%
17	CCOC(=O)c1c(-c2ccccc2)csc1NC(=O)c1ccc(S(=O)(=O)N2CCOCC2)cc1	-2.9%	9%	?	1%	-28%	6%	5%	?
18	Cc1cc(=O)oc2c(C)c(OC(C)C(=O)Nc3ccc(N4CCC(C)CC4)cc3)ccc12 (stereo not given)	/	/	/	4%	/	4%	-3%	0%
19	Cc1cc(C)cc(N(CC(=O)NC2CCCC2)C(=O)CCC(=O)Nc2cc(C)ccn2)c1	/	?	-1%[46.1 µM]	-1%	/	-1%	-3%	9%
20	O=C(Nc1ccc(N2CCOCC2)cc1)Nc1cnsn1	-2.4%	17%	?	-1%	-8%	2%	-4%	24%

Compound profiles, from the list above. Screens in order: Cruzain Triton, Lassa entry inh, MARV entry inh, SARS PLP yeast, Cruzain inh noDet, NS1 inh, RE007 growth inh, StopGo reporter
CN(C(=O)c1cccc(NC(=O)c2ccccc2)c1)C1CCCCC1 in the list: /, /, /, 0%, /, -13%, 7%, -27%
CCCS(=O)(=O)N1CCC(C(=O)NCCc2ccccc2)CC1 in the list: 9.9%, 17%, 11%, -5%, 6%, -3%, 31%, -1%

The list continues:
no.	mol	Cruzain Triton	Lassa entry inh	MARV entry inh	SARS PLP yeast	Cruzain inh noDet	NS1 inh	RE007 growth inh	StopGo reporter
21	Cc1cc(C)c(C#N)c(SCCS(=O)(=O)Cc2ccc(Cl)cc2)n1	0.8%	-3%	-15%	10%	-1%	?	-14%	-20%
22	Cc1ccc(S(=O)(=O)Nc2ccccc2CNc2cccc(C)n2)cc1	-2.4%	9%	-30%	4%	10%	10%	/	-1%
23	CCOc1ccc(S(=O)(=O)N2CCN(c3ccc(Cl)c(Cl)c3)CC2)c2ccccc12	2.2%	?	6%[46.1 µM]	/	10%	/	/	-14%
24	CCOC(=O)N1CCN(C(=O)c2nn(C)c3c2CSc2ccccc2-3)CC1	/	/	/	4%	/	-13%	-2%	6%
25	CC(C(=O)Nc1cc(Cl)cc(Cl)c1)N1CCCC1 (stereo not given)	/	/	/	-1%	/	-7%	-16%	?
26	O=C(CSc1nnc(Cc2cccs2)n1-c1ccccc1)Nc1ccc2c(c1)OCCO2	-4.2%	-14%	?	-2%	?	-63%	2%	6%
27	CN(Cc1cc2ccccc2[nH]c1=O)C(=O)COc1ccccc1	/	/	/	1%	/	3%	2%	0%
28	Cc1cccc2c1cnn2C(=O)CCC(=O)NCC(C)c1ccccc1 (stereo not given)	/	/	/	-3%	/	-6%	-12%	0%
29	COc1ccccc1C(=O)OCC(=O)Nc1ccc(OC(F)F)cc1	-1.1%	18%	24%	-5%	-10%	-52%	-11%	-1%
30	CCCCNC(=O)c1c(C)cc(=O)oc1C	-4.1%	8%	-12%	6%	-30%	-4%	-5%	-5%
31	CCOC(=O)C1=C(C)NC(C)=C(C(=O)OCC)C1C(=O)OCC(=O)NC(C)c1ccccc1 (stereo not given)	/	?	?	3%	/	/	2%	-18%
32	COC(=O)Cc1c(C(=O)OC)nnn1-c1cccc(C(F)(F)F)c1	/	-19%	20%[46.1 µM]	-1%	/	/	18%	-19%
33	COc1cccc(NC(=O)c2ccccc2C(F)(F)F)c1	/	8%[46.1 µM]	?	-1%	/	-1%	-5%	15%
34	O=C(Cc1cccs1)Nc1ccon1	2.7%	0%	18%	0%	-2%	6%	5%	10%
35	COC(=O)c1ccc(-n2nnnc2SCC(=O)Nc2cc(OC)ccc2OC)cc1	0.6%	2%	1%	-4%	3%	6%	10%	/
36	CCOc1cc(/C=N/NC(=O)C(=O)NCc2ccc3c(c2)OCO3)ccc1OCC(=O)N1CCOCC1	/	9%[46.1 µM]	-15%[46.1 µM]	-3%	/	-14%	-3%	-6%
37	CC(=O)c1ccc2c(ccc3ccccc32)c1	-9.9%	?	34%	16%	6%	1%	?	11%
38	COc1cccc2c1cc1c(=O)n(CC(=O)N3CCCCCC3)nc(C)n12	/	/	/	-1%	/	12%	30%	-12%
39	Cn1ncnc1SCc1cn2cccnc2n1	/	?	-5%[46.1 µM]	2%	/	-1%	2%	4%
40	O=[N+]([O-])c1ccc(CS(=O)(=O)c2ncn[nH]2)cc1	/	-6%[46.1 µM]	1%[46.1 µM]	7%	/	8%	-13%	-10%

Other results:
no.	mol	Cruzain Triton	Lassa entry inh	MARV entry inh	SARS PLP yeast	Cruzain inh noDet	NS1 inh	RE007 growth inh	StopGo reporter
41	CC(=O)NCCC1CCN(C(=O)C2CCC(=O)N(C3CCCC3)C2)CC1 (stereo not given)	/	/	/	6%	/	10%	6%	-11%
42	COc1ccc(-c2n[nH]c3c2CN(C(=O)c2ccc(F)cc2)CC3)cc1	/	/	/	13%	/	9%	-3%	2%
43	CC(C)(C)c1ccc(-c2noc(C(=O)NN)n2)cc1	/	?	-21%[46.1 µM]	0%	/	3%	-3%	-29%
44	COc1ccc(Cn2c(SCc3ccc(C(=O)NCCc4ccccc4)cc3)nc3cccnc32)cc1	-3.9%	/	?	/	-13%	/	/	-11%
45	CCCCC(=O)NC(=S)Nc1nnn(CCC)n1	/	-5%	9%[46.1 µM]	1%	/	/	-14%	14%
46	O=C(CNC(=O)c1cccc(OC(F)F)c1)OCC(=O)c1ccccc1	/	14%[46.1 µM]	18%[46.1 µM]	-1%	/	/	7%	-1%
47	Cn1c(=O)c2cc(C(=O)N3CCN(c4cccc(C(F)(F)F)c4)CC3)sc2c2ccccc21	-0.4%	24%[46.1 µM]	4%[46.1 µM]	/	-3%	/	/	-19%
48	O=S(=O)(c1ccc(S(=O)(=O)N2CCCN(Cc3ccccc3)C2)cc1)N1CCCCCC1	6.6%	?	?	-1%	?	-2%	-14%	2%
49	O=S(=O)(NCCc1nnc2ccc(SCc3cccc(Cl)c3)nn12)c1ccccc1	-5.3%	-9%[46.1 µM]	/	/	?	/	/	-9%
50	c1ccc(-c2ccc(-c3ccncn3)cc2)cc1	/	?	?	/	/	/	7%	8%
51	O=C(c1cc(F)c(F)c(F)c1F)N1CCN(Cc2ccc3c(c2)OCO3)CC1	/	/	/	-2%	/	1%	1%	-22%
52	CC(C)(C)OC(=O)N[C@@H](Cc1ccccc1)c1nnc(SCC(=O)c2ccc(Cl)cc2)o1	-0.3%	-21%[14.3 µM]	?	-10%	?	9%	5%	-28%

Arranged by formula weight (smallest number first): part of the list above
no.	mol	Cruzain Triton	Lassa entry inh	MARV entry inh	SARS PLP yeast	Cruzain inh noDet	NS1 inh	RE007 growth inh	StopGo reporter
43	CC(C)(C)c1ccc(-c2noc(C(=O)NN)n2)cc1	/	?	-21%[46.1 µM]	0%	/	3%	-3%	-29%
41	CC(=O)NCCC1CCN(C(=O)C2CCC(=O)N(C3CCCC3)C2)CC1 (stereo not given)	/	/	/	6%	/	10%	6%	-11%
51	O=C(c1cc(F)c(F)c(F)c1F)N1CCN(Cc2ccc3c(c2)OCO3)CC1	/	/	/	-2%	/	1%	1%	-22%
47	Cn1c(=O)c2cc(C(=O)N3CCN(c4cccc(C(F)(F)F)c4)CC3)sc2c2ccccc21	-0.4%	24%[46.1 µM]	4%[46.1 µM]	/	-3%	/	/	-19%
52	CC(C)(C)OC(=O)N[C@@H](Cc1ccccc1)c1nnc(SCC(=O)c2ccc(Cl)cc2)o1	-0.3%	-21%[14.3 µM]	?	-10%	?	9%	5%	-28%
48	O=S(=O)(c1ccc(S(=O)(=O)N2CCCN(Cc3ccccc3)C2)cc1)N1CCCCCC1	6.6%	?	?	-1%	?	-2%	-14%	2%

Assay outcomes (PubChem)
